# From PubChem BioAssay
# Vif A3G = HIV-1 Vif–A3G interaction blockers – biochemical, TR-FRET, GST-Vif 1-94, biotin-A3G peptide, dose response retest, primary screen (AID 1117319) | TR-FRET GST-Vif / biotin-A3G peptide binding; higher % means a stronger effect; test concentration not given here; strong numbers were not always called active | inhibition, %; hits with a dose series show IC50 in µM | 260,000 compounds, 0.57% hits;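 active = above the screen mean plus three standard deviations and confirmed in dose response; inconclusive = results disagree or hit not tested in dose response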;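 note: Vif residues 1-94 fused to GST binding biotinylated APOBEC3G peptide 110-148; 0% = full assay without inhibitor and 100% = GST in place of GST-Vif; retest series ran down from 100 µM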
# Beta cell apopt = blocks beta cell apoptosis; INS-1E cytokine-induced death, ATP luminescence, 48 h; percent of positive-control rescue, neutral wells zero; protection from apoptosis, % (test concentration not listed); 300,000 compounds, 0.8% hits;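 active = all replicates at 75% or more, or half of them and the mean; inconclusive = half reach 75% but not the mean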;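 note: 0% = cytokine-treated negative control wells and 100% = positive control rescue; higher means more ATP so stronger rescue from cytokine killing; wells of about 40 µL received 100 nL stock; the first replicate is given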
# Bfl-1 A1 inh = inhibitors of the anti-apoptotic protein A1, read as caspase activation; MEF A1-2A-BIM cells, Caspase-Glo 3/7 luminescence, 3 h; percent of clofoctol response, vehicle zero; caspase activation, % (concentration not given with the values); 330,000 compounds, 0.066% hits;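 active = over half of replicate activation scores above 10%, or exactly half above 10 with the replicate mean above 10; inconclusive = replicate mean below 10 yet half the replicates above 10; inactive = over half of replicates below 10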;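 note: wells of about 30 µL received 50 nL stock; many hits fall short of the cut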
# Calb FLC = affects C. albicans growth with fluconazole. C. albicans CaCi-2 (fluconazole-resistant clinical isolate) + fluconazole, Alamar Blue growth, 48 h. growth inhibition, % (test concentration not listed). 300,000 compounds, 0.57% hits;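 active = most replicates above 75%; inconclusive = exactly half above 75%; inactive = most below 75%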;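 note: all wells also contain fluconazole at 8 µg/ml as a sub-toxic cotreatment; 0% = median of DMSO wells and 100% = median of geldanamycin control wells; wells of about 8 µL received 7.5 nL stock; the first replicate is given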
# MLL AF4-AF9 inh = MLL-AF4/AF9 protein interaction inhibition. AlphaScreen, biotin-AF4 peptide binding to FLAG-AF9. inhibition, % at 10 µM. 350,000 compounds, 0.47% hits. AID 651704;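 active = every replicate reaching a set inhibition limit, whatever the replicate mean, cut at about 25% in these data; inconclusive = mean inhibition reaches that limit but some replicates miss it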;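 note: 0% = plate neutral control median and 100% = total signal loss; the record names both 10 and 1 µM as test concentration; the first replicate is given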
# LANA-H2B inh = blocks KSHV LANA binding to histone H2A/H2B | AID 2629 | 320,000 compounds, 0.6% hits | inhibition, % (concentration not given with the values) | cell-free LANA-H2A/H2B peptide, fluorescence polarization; in the data active = inhibition mostly above about 10%, no sharp cut-off; inactive = mostly below about 6.7%;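 note: stock transfer was 7.5 nL into about 10 µL; 0% = median of vehicle wells and 100% = median of positive control wells; one replicate is shown; the record names a cut of 25% in any replicate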
# Target sequence (Q9QR71 whole entry, looked up): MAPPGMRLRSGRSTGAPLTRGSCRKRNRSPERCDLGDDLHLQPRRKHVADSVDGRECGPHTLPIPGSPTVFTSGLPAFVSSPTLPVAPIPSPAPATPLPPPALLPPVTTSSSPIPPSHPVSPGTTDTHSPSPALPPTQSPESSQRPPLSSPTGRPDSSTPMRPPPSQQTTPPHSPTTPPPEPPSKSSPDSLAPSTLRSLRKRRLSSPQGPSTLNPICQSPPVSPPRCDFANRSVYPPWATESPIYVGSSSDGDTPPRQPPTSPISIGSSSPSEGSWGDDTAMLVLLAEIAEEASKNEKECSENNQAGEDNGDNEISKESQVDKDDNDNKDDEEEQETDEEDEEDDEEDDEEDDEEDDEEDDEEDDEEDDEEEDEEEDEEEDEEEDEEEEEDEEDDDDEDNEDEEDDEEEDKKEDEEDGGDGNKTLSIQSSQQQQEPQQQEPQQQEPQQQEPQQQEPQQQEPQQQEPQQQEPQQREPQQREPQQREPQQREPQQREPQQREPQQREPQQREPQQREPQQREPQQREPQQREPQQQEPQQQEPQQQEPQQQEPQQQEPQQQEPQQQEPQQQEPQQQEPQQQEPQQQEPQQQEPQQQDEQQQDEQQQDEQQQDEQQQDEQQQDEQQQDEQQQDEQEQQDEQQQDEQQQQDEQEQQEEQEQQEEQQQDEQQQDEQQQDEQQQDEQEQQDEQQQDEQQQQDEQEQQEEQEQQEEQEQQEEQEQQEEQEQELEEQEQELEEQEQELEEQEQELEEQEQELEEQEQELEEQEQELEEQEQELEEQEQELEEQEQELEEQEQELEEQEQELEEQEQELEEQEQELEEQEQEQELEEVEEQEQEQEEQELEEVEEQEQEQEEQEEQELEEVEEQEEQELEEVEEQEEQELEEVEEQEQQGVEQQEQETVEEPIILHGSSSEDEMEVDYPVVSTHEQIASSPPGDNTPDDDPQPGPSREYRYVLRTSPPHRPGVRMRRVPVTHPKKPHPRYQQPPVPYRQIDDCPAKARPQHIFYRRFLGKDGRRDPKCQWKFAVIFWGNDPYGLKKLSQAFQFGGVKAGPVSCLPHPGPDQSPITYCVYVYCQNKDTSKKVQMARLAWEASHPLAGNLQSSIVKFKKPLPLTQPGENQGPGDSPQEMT
# RanGTP-Impb inh = inhibitors of RanGTP-importin-beta interaction, primary screen, biochemical, FRET, CFP-Ran, YFP-importin-beta, homogeneous | cell-free CFP-Ran/YFP-importin-beta FRET ratio | inhibition, % (test concentration not listed) | 300,000 compounds, 1.1% hits | AID 2216;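 active = most replicates above 15%; inconclusive = exactly half above 15%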;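 note: 0% = DMSO wells and 100% = Ran loaded with GDP instead of GTP; wells of about 40 µL received 100 nL stock; the first replicate is given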
# T cruzi repl = T. cruzi replication inhibition; AID 1885; T. cruzi beta-gal in NIH3T3, luminescence, 90 h; inhibition, % (no concentration beside the values); 300,000 compounds, 1.4% hits;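 active = mean inhibition across valid replicates above about 55%, limit read from the data; inconclusive = mean below that limit but half or more replicates reach it; inactive = mean below it, under half of replicates reach it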;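 note: signal also drops with host cell toxicity which is not excluded here; 0% = plate median of DMSO wells and 100% = zero luminescence signal; higher percent means less beta-gal luminescence so fewer parasites; stock transfer was 50 nL into about 50 µL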
# Numbers without * were called inactive; ? = inconclusive; / = not tested or not shown; & = joins results of further samples. Not a hit list, and some 4.3% of all compounds hit somewhere here.
SMILES,Vif A3G,Beta cell apopt,Bfl-1 A1 inh,Calb FLC,MLL AF4-AF9 inh,LANA-H2B inh,RanGTP-Impb inh,T cruzi repl
COc1ccccc1CNC(=O)CCCc1cn(C)c2ccccc12,0.0%,5.3,0.3,7.5,0.7,-4.4,3.7,-2.2
CCOc1ccc(NC(=O)CN(C)C(=O)c2cccnc2Sc2ccccc2Cl)cc1OCC,1.3%,-5.1,-0.8,2.9,1.8,3.0,3.3,4.5
O=C(C1CCCN(S(=O)(=O)Cc2ccccc2)C1)N1CCc2ccccc21 (stereo not given),?,1.2,0.3,0.1,/,0.4,0.7,0.7
CC(C)c1nnc(NC(=O)C2CCCN2C(=O)Nc2ccccc2)s1 (stereo not given),-3.4%,-0.7,0.2,2.5,-3.0,-1.0,2.4,-11.0
COc1ccc(OC(C)=O)c(C2c3cc(OC)c(OC)cc3CCN2C(C)=O)c1 (stereo not given),1.2%,0.7,0.2,9.3,/,-0.8,-0.7,-10.0
O=C1NC(CCc2ccccc2)C(=O)N1CCOc1ccccc1 (stereo not given),1.7%,-7.0,0.8,6.5,0.1,-0.7,2.3,-6.0
COc1cccc(NS(=O)(=O)c2c(C)nc3sccn3c2=O)c1,/,-6.8,0.1,-7.8,-5.7,6.3,5.9,-8.2
COc1ccccc1C(=O)N1CCC(N2CCN(c3ccccc3)CC2)CC1,5.2%,-1.4,0.7,-3.6,3.1,-3.2,6.8,-17.1
CC1(c2ccccc2Cl)NC(=O)N(CC(=O)NCCC2=CCCCC2)C1=O (stereo not given),?,-3.0,0.7,18.7,-3.1,-2.8,1.3,-4.5
COc1ccc(-n2c(C)c(C(C)=O)c3cc(OC(C)=O)ccc32)cc1,-3.4%,7.9,0.9,-1.4,-0.1,0.6,0.3,5.1
O=C(N[C@@H](Cc1c[nH]c2ccccc12)C(=O)O)c1ccccc1Cl,11.0%,-2.2,0.5,-4.1,1.7,2.6,3.6,-3.6
O=C1CSC(c2ccccc2)N1Nc1nc(N2CCOCC2)nc(N2CCOCC2)n1 (stereo not given),4.7%,-2.2,0.2,-3.6,-0.6,0.1,-1.2,-6.5
NC(=O)c1ccccc1NC(=O)/C=C/c1cccc(Cl)c1,-2.6%,3.7,-2.4,36.4,/,2.6,-4.0,6.9
CCN(CC(=O)Nc1cccc(C(C)=O)c1)S(=O)(=O)c1ccc(OC)cc1,0.1%,6.3,1.4,8.7,/,0.8,-0.2,-14.8
Cc1ccc(NC(=O)C2CCCN(c3ncccn3)C2)cc1F (stereo not given),-2.6%,2.6,0.0,-3.6,/,4.3,3.5,5.0
COc1ccc(CN2CCN(C3CCC3)CC2CCO)c(C)c1C (stereo not given),/,-8.7,-1.1,-4.9,2.6,6.1,3.4,-18.9
CCOc1ncccc1C(=O)Nc1ccc(S(=O)(=O)NC2=NCCCCC2)cc1,-5.9%,0.1,0.2,-2.7,0.0,-0.7,2.4,-5.7
O=C(Cc1ccccc1)NCCc1cnc[nH]1,/,0.9,0.8,-4.9,0.3,0.9,-1.2,4.7
COc1ccc(N(CC(=O)NCCC2=CCCCC2)S(C)(=O)=O)cc1,6.3%,-5.8,-0.9,10.5,/,3.3,-0.3,2.4
Cc1cc(Br)ccc1NC(=O)CN1C(=O)C2C3CC(c4ccccc4)C(C3)C2C1=O (stereo not given),2.4%,10.4,0.3,0.1,-5.0,-0.9,-1.1,55.9*
CCOC(=O)C1CCN(C2=NC(=O)/C(=C/c3ccccc3OC)S2)CC1,-3.1%,4.0,1.0,-3.3,2.9,4.7,5.6,5.6
Cc1cccc(C(=O)NCCCNC(=O)c2ccc(C)nc2)c1,1.7%,-3.5,-0.2,-6.1,-0.2,-4.2,-3.9,-2.1
CC(C)=C1SC(N2CCCCC2)=NC1=O,11.3%,-18.3,0.8,-8.0,/,1.2,-1.2,0.1
C#CCOCCOCCOCCNc1nc(N2CCN(C(=O)[C@H](CCC(=O)O)n3cc([C@@H](N)CCCCN)nn3)CC2)nc(N2CCN(C(=O)[C@H](CCC(=O)O)n3cc([C@@H](N)CCCCN)nn3)CC2)n1,5.5%,-9.0,0.9,/,-2.9,-0.8,/,/
Cc1ccc2sc(=O)[nH]c2c1,1.2%,-2.0,0.6,0.5,0.6,4.9,0.7,-14.4
O=c1c2ccccc2[nH]c(=S)n1-c1cccc(S(=O)(=O)N2CCCC2)c1,8.5%,-3.5,0.3,7.4,-2.8,-0.4,-2.9,4.2
COc1ccc(N(C(=O)c2cccnc2)S(=O)(=O)c2ccc3c4c(cccc24)C(=O)N3C)cc1,?,-4.8,0.4,-0.6,/,-2.1,5.4,52.0
Cn1c(C(=O)NCCOc2ccccc2Cl)cc(=O)n(C)c1=O,18.8%,-3.7,-0.4,-4.3,0.1,-3.2,2.1,-7.2
CN1CCC(=NNC(=O)c2ccco2)CC1,7.5%,-6.1,-1.1,0.0,/,-0.8,-2.5,-14.8
CCCOC(=O)c1cccc(Nc2nc(-c3cccnc3)nc3ccccc23)c1,27.0%,29.5,0.1,-18.0,0.2,-0.7,2.9,64.8*
Cc1cccc(NC(=O)COC(=O)C2C3CC4OC(=O)C2C4C3)c1C (stereo not given),3.0%,2.9,1.3,4.1,1.3,-13.8,0.3,-0.6
CCOc1ccc2nc(SC(CC)C(=O)Nc3cc(C)on3)sc2c1 (stereo not given),-8.4%,-6.4,-0.6,-10.5,/,0.0,1.1,-6.3
O=C(Nc1ccccc1C(=O)N1CCOCC1)c1ccco1,-2.8%,-0.4,-0.5,9.6,/,7.0,-1.5,2.3
COc1ccc(CN(CC2CCCO2)S(=O)(=O)c2ccc(C(=O)O)cc2)cc1OC (stereo not given),-3.6%,0.1,0.5,-6.1,/,1.2,-1.6,20.7
Cn1c(=O)c2c(-c3ccccc3)n(Cc3cccnc3)cc2n(C)c1=O,9.3%,1.5,0.3,/,/,-1.0,?,16.0
Cn1c(Cc2cccs2)n[nH]c1=S,5.6%,-1.2,0.7,-0.2,/,4.7,1.4,-9.2
CCN(CC)CCN(Cc1cc2cccc(C)c2[nH]c1=O)C(=S)Nc1ccccc1,1.6%,6.4,-0.2,-1.9,-2.7,4.8,1.1,20.8
O=C(O)c1ccc(N2C(=O)Nc3ccccc3N2O)cc1,-8.3%,-3.1,-0.8,-15.8,-1.8,-3.5,-1.4,-6.2
CS(=O)(=O)Nc1cccc(-c2cnc3ccccc3n2)c1,/,-0.2,-1.9,0.9,-0.9,-4.9,1.6,-3.9
COC(=O)CSc1ncc(S(=O)(=O)c2ccccc2)c(=O)[nH]1,-7.1%,/,-0.1,1.4,-2.4,4.0,0.9,-6.5
O=C(CSc1n[nH]c(-c2ccccc2)n1)N1CCCC1,/,-2.8,-0.4,-6.4,0.9,4.7,-1.0,-23.5
O=C(Nc1ccc2c(c1)CCC2)c1ccc(Cl)nc1,12.8%,4.4,-1.9,-6.0,-2.1,3.0,2.5,17.2
Cn1c(=O)oc2cc(S(=O)(=O)N3CCC(C(=O)Nc4ccc(OC(F)(F)F)cc4)CC3)ccc21,1.9%&-0.6%,1.1,0.4,19.5,/,2.5,1.8,20.2
O=c1[nH]cc(S(=O)(=O)N2CCCc3ccccc32)c(=O)[nH]1,-7.2%,-1.6,-0.1,33.1,-0.4,3.2,-1.1,4.3
CC(OC(=O)c1cc(=O)[nH]c2ccccc12)C(=O)NCc1ccccc1 (stereo not given),-5.2%,-0.9,0.5,-0.8,-1.6,-3.3,1.9,-9.4
Cc1onc(-c2c(Cl)cccc2Cl)c1C(N)=O,3.2%,-10.2,0.4,?,/,3.0,1.3,-17.6
O=C(CCC1CCCC1)Nc1ccc(C(=O)NCc2cccnc2)cc1,9.1%,100.1*,0.2,-3.7,-2.0,-3.8,-0.7,-48.6
Cc1ccc(C(=O)Cn2cnc3ccccc3c2=O)cc1C,-2.1%,0.3,0.3,5.1,/,-4.3,-3.1,20.0
COc1ccc(NC(=O)CS(=O)(=O)Cc2ccccc2)c([N+](=O)[O-])c1,-0.1%,-4.3,-0.5,14.5,-0.7,2.5,1.0,0.4
Cc1ccc(NC(=O)NNC(=O)COc2ccc3ccccc3c2)cc1,/,-2.1,-0.1,-0.2,-1.0,-5.6,4.8,0.6
O=C(NCCC1=CCCCC1)NC12CC3CC(CC(C3)C1)C2,-1.3%,-0.9,-0.2,-43.4,/,1.8,-2.3,16.1
O=C(CCN1CCOCC1)c1ccc(N2CCCCC2)cc1,/,-9.6,0.4,/,-30.9,0.2,/,/
COc1cc(CC(NC(C)=O)C(=O)NC2CCN(C(=O)Nc3ccc(C)cc3)CC2)cc(OC)c1 (stereo not given),3.0%,-13.5,-0.3,-6.7,-1.0,5.3,-5.0,-13.0
Cc1cc(C)nc(SCCS(=O)Cc2ccc(Cl)cc2)n1 (stereo not given),11.0%,-2.1,-0.2,6.3,/,-2.2,2.9,-6.9
CCCN1CNC(=S)N(c2ccccc2OCC)C1,28.5%,-2.7,0.4,10.4,/,0.8,1.7,-3.6
Cc1sc(NC(=O)CSc2nnnn2C)c(C#N)c1C,3.7%,-7.3,0.5,5.2,-1.2,-0.9,-0.2,-0.3
O=C(C1=C[C@@H](c2ccc(C(F)(F)F)cc2)C[C@@H](OCCCCO)O1)N1CCCCCCC1,/,-1.8,0.6,-18.3,-2.9,-0.3,-3.2,12.3
COc1ccc(CC(=O)Nc2cccc(SC)c2)cc1OC,0.4%,/,/,-8.3,-0.3,/,1.5,-1.0
COc1ccc(C2Oc3ccccc3C3=C2C(c2cccs2)n2ncnc2N3)cc1 (stereo not given),17.9%,1.8,0.6,9.4,/,-3.7,0.0,23.0
CN(C)C(=S)Nc1cccc(-c2n[nH]c(=S)o2)c1,5.0%,1.4,-0.9,3.6,-0.9,2.9,6.1,16.0

# Other results:
SMILES,Vif A3G,Beta cell apopt,Bfl-1 A1 inh,Calb FLC,MLL AF4-AF9 inh,LANA-H2B inh,RanGTP-Impb inh,T cruzi repl
NS(=O)(=O)c1ccc(CCNC(=O)c2ccc[nH]c2=S)cc1,-1.7%,-1.9,-0.5,3.5,-5.4,-3.0,-1.0,-6.2
CCc1cc(=O)oc2c3c(cc(OCC(=O)NCc4ccccn4)c12)OC(C)(C)CC3,/,5.5,-1.0,-1.2,0.3,-1.4,-0.4,19.6
Cc1cc(OCCCCCN2CCCC2)ccc1Cl,3.9%,7.7,0.4,-30.9,1.5,-3.6,5.6,66.7*
COC(=O)c1c(C)oc(C)c1S(=O)(=O)NCc1cccs1,-0.8%,-3.1,-0.4,-1.6,0.1,4.1,2.2,-3.6
O=C(NCCN1CCN(Cc2ccccc2)CC1)Nc1cc(Cl)cc(Cl)c1,/,-5.5,0.7,-4.9,6.7,2.0,0.5,30.2
O=C(COC(=O)CCC(=O)c1ccc(F)cc1)NCc1ccco1,-6.7%,-0.8,-0.3,-26.3,-0.9,-11.2,-0.4,-6.5
O=C(NC1CCN(Cc2ccc3ccccc3c2)CC1)c1ccccc1,2.6%,/,1.7,-1.5,-2.2,-8.0,-2.9,13.2
C=CCNC(=O)NC(=O)COC(=O)CC(NC(N)=O)c1ccc(Cl)cc1 (stereo not given),12.0%,0.8,0.9,10.7,/,0.0,-0.5,-14.8
CCCCNc1c(-c2ccc(SC3CCCCC3)c(OC)c2)nc2ccc(Cl)cn12,/,-1.2,0.8,2.8,13.3,2.3,-3.6,69.6*
